Beta cell apopt: beta cell apoptosis inhibition; INS-1E cytokine-induced death, ATP luminescence, 48 h; percent of positive-control rescue, neutral wells zero; AID 435005; 300,000 tested, 0.8% active; protection from apoptosis, % (no concentration beside the values);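 active = all replicates at 75% or more, or half of them and the mean; inconclusive = half reach 75% but not the mean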;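 also: 0% = cytokine-treated negative control wells and 100% = positive control rescue; higher means more ATP so stronger rescue from cytokine killing; wells of about 40 µL received 100 nL stock; the first replicate is given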
FGF22 binding: binders of recombinant human FGF22 by thermal shift. Q9HCT0. SYPRO orange fluorescence; percent of sucrose octasulfate shift, DMSO zero. calls only at 9.99 µM. 340,000 tested, 1.5% active;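 active = melting point raised past a set limit in the mean and every replicate; inconclusive = no clear call; three in four hits are not shown here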
Target sequence (Q9HCT0 whole entry, looked up): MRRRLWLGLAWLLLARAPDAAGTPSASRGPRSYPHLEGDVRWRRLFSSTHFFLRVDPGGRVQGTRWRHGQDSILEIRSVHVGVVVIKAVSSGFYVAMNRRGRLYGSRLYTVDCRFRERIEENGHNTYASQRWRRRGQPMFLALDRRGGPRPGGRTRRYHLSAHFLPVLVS
MLL AF4-AF9 inh: MLL-AF4/AF9 protein interaction inhibition. AlphaScreen, biotin-AF4 peptide binding to FLAG-AF9. inhibition, % at 10 µM. 350,000 tested, 0.47% active. AID 651704;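 active = every replicate reaching a set inhibition limit, whatever the replicate mean, cut at about 25% in these data; inconclusive = mean inhibition reaches that limit but some replicates miss it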;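 also: 0% = plate neutral control median and 100% = total signal loss; the record names both 10 and 1 µM as test concentration; the first replicate is given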
Target sequence (P42568 whole entry, looked up): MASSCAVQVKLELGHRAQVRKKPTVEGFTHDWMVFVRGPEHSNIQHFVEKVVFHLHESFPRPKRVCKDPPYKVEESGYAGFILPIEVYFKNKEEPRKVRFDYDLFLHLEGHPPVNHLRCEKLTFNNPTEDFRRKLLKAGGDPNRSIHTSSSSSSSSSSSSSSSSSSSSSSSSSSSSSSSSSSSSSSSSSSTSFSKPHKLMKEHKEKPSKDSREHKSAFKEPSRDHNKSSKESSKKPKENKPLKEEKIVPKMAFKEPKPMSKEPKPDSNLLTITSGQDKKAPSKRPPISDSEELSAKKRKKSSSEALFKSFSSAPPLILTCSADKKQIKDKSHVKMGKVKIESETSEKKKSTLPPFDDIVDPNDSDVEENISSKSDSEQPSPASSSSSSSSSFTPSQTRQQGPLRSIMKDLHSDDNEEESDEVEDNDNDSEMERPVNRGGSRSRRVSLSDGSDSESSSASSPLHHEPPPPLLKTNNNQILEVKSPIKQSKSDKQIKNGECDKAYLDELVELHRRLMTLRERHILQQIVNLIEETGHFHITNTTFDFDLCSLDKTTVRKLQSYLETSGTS
ALR inh: human ALR oxidase inhibition via reduced H2O2 | 290,000 tested, 3.8% active | inhibition, % (no concentration beside the values) | purified ALR, DTT oxidation, H2O2 HRP-luminol luminescence | P55789;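 active = mean and each replicate at 75% or more; inconclusive = only one of the two met; inactive = neither met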;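 also: stock transfer was 7.5 nL into about 7.5 µL; 0% = neutral wells and 100% = wells with inactivated enzyme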
Target sequence (P55789 whole entry, looked up): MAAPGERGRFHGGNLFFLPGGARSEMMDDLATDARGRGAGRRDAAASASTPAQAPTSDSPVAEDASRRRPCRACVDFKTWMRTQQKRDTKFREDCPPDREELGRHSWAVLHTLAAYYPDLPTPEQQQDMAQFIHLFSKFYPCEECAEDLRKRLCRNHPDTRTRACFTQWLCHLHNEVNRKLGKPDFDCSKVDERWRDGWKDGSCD
Ecoli rRNA inh: selective bacterial rRNA inhibition in E. coli. GFP signal change (wild-type ribosome), % (test concentration not listed). 350,000 tested, 1.6% active. E. coli WT GFP vs humanized-ribosome RFP mutants, fluorescence, 24 h; active compounds read low; DMSO median 0, no signal -100;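 active = significant combined selectivity score with lowered wild-type GFP, culture density cut under 30%, mutant RFP and density less affected; inactive = any of these conditions unmet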; also: one replicate is shown; some compounds called inactive have numbers as strong as hits
Calb FLC: C. albicans growth modulation with fluconazole. C. albicans CaCi-2 (fluconazole-resistant clinical isolate) + fluconazole, Alamar Blue growth, 48 h. growth inhibition, % (test concentration not listed). 300,000 tested, 0.57% active;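 active = most replicates above 75%; inconclusive = exactly half above 75%; inactive = most below 75%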;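 also: all wells also contain fluconazole at 8 µg/ml as a sub-toxic cotreatment; 0% = median of DMSO wells and 100% = median of geldanamycin control wells; wells of about 8 µL received 7.5 nL stock; the first replicate is given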
RanGTP-Impb inh: disruptors of Ran-importin-beta complex formation – biochemical, FRET, CFP-Ran, YFP-importin-beta, homogeneous, primary screen; cell-free CFP-Ran/YFP-importin-beta FRET ratio; inhibition, % (test concentration not listed); 300,000 tested, 1.1% active; AID 2216;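 active = most replicates above 15%; inconclusive = exactly half above 15%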;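 also: 0% = DMSO wells and 100% = Ran loaded with GDP instead of GTP; wells of about 40 µL received 100 nL stock; the first replicate is given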
T cruzi inh: blocks replication of Trypanosoma cruzi; 300,000 tested, 1.4% active; AID 1885; inhibition, % (no concentration beside the values); T. cruzi beta-gal in NIH3T3, luminescence, 90 h;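 active = mean inhibition across valid replicates above about 55%, limit read from the data; inconclusive = mean below that limit but half or more replicates reach it; inactive = mean below it, under half of replicates reach it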;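 also: signal also drops with host cell toxicity which is not excluded here; 0% = plate median of DMSO wells and 100% = zero luminescence signal; higher percent means less beta-gal luminescence so fewer parasites; stock transfer was 50 nL into about 50 µL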
Ecoli rRNA inh OD600: recorded beside Ecoli rRNA inh, whose call it bears; OD600 change, %; measured here: OD600 growth;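 optical density of the mix in the first replicate; 0 = DMSO median and -100 = no signal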
Ecoli rRNA inh RFP: second read-out of Ecoli rRNA inh, no call of its own (marks repeat the call); RFP signal change, %; measured here: RFP humanized mutant strains;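 first replicate; 0 = DMSO median and -100 = no signal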
The depositor's hits bear a star; i = inactive; ? = inconclusive; · = no result given. Only part of the results is shown; rates above refer to the full screens.

No.	SMILES	Ecoli rRNA inh RFP	RanGTP-Impb inh	Calb FLC	MLL AF4-AF9 inh	Ecoli rRNA inh	ALR inh	T cruzi inh	FGF22 binding	Ecoli rRNA inh OD600	Beta cell apopt
1	COc1ccc(/C(C)=N/NC(=O)c2nnn(-c3nonc3N)c2-c2ccccc2)cc1	-0.8	3.7	10	-4.9	5	·	-4	i	11	-4
2	Cc1ccc(C(c2nnnn2C(C)(C)C)N2CCN(C3CCCC3)CC2)cc1 (stereo not drawn)	·	2.3	-2	·	·	-19	1	·	·	-1
3	O=C(Nc1cccnc1)c1cccc([N+](=O)[O-])c1	-0.6	-2.3	0	-0.5	5	2	-6	i	-9	-3
4	COc1cccc(-c2nc(-c3cccs3)no2)c1	-0.8	3.5	-8	-5.6	19	-18	-10	i	7	-3
5	CCOc1ccc(N2Cc3ccccc3C2)cc1	4.4	0.7	-11	5.9	6	-22	8	i	-3	5
6	O=C(c1ccc(-c2nc3ccccc3s2)o1)N1CCN(c2ccccc2O)CC1	-5.9	-2.1	50	-0.1	-39	0	12	i	-53	4
7	O=Cc1cn(CC(=O)N2CCc3ccccc32)c2ccccc12	0.7	-2.1	-3	-2.7	-6	-7	-7	i	-1	-1
8	CCCNC(=O)COC(=O)c1ccccc1OCc1ccc(Cl)cc1	-6.5	-0.3	-2	·	-10	0	4	·	-22	0
9	Cc1ccc(C(=O)NNC(=O)C2CCN(C(=O)OC(C)(C)C)CC2)cc1	-1.3	4.7	-3	-0.4	12	-7	-10	i	13	-5
10	Cc1cccc2cc3c(N)c(C(=O)Nc4ccc(N5CCOCC5)cc4)sc3nc12	·	-7.3	1	·	·	3	28	·	·	22
11	O=C(NC1CCCC1)c1cc2nc(-c3ccco3)cc(C(F)(F)F)n2n1	0.3	8.4	7	-1.0	0	88*	17	i	-2	·
12	COc1cc(/C=C/C(=O)OCC(=O)N(C)C2CCS(=O)(=O)C2)ccc1OC(F)F (stereo not drawn)	-0.9	4.4	-3	-1.3	12	-6	7	i	16	-3
13	Cc1cc(C)c2c(C)c(C(=O)NCc3ccc(S(N)(=O)=O)cc3)oc2c1	3.9	-1.7	-6	-1.2	13	-12	1	i	17	-5
14	O=C(Cc1ccccc1)NC1c2ccccc2-c2ccccc21	-0.5	1.5	2	-1.5	16	-18	13	i	17	-2
15	COC(=O)/C(=N/Nc1ccccc1)N1CCCc2ccccc21	-24	1.3	2	37*	-6	·	2	i	-21	4
16	CN1C(=S)N(c2ccccc2)C(=O)/C1=C/c1ccco1	·	-4.1	-14	·	·	·	3	·	·	-10
17	Cc1nc2cc(-c3ccccc3)ccc2o1	·	-2.6	16	·	·	66	-16	·	·	-6
18	Cc1ccc2c(c1)N(C(=O)CCC(=O)NCc1cccnc1)CCO2	-1.4	-5.2	-6	-1.6	12	6	-7	i	6	1
19	COc1ccc(CNC(=O)CCC(=O)N2CCN(C(C)=O)CC2)cc1	0.7	1.8	-3	-0.5	1	-15	16	i	7	-3
20	O=C(NC1C/C(=N/O)c2cc3c(cc21)OCO3)C(F)(F)F (stereo not drawn)	-2.5	0.6	?	1.6	0	-2	-8	i	-8	-1
21	COc1ccc(OC)c(NC(=O)CCN2CCN(c3ccccc3F)CC2)c1	·	0.9	-13	·	·	-27	-6	·	·	4
22	COc1ccc(CCNC(=O)CCSc2nc(-c3ccco3)cc(C(F)(F)F)n2)cc1	1.3	-0.4	-10	·	5	-5	24	·	6	-1
23	CCOc1cc(NC(=O)c2ccco2)c(OCC)cc1NC(=O)c1ccco1	-1.8	-0.2	24	25	6	-21	6	i	4	-2
24	O=C1COc2ccc(S(=O)(=O)N3CCC(C(=O)NCc4ccccc4)CC3)cc2N1	-0.3	0.4	20	-5.4	-1	2	-13	i	3	-8
25	C=CCSc1nc2ccccc2n1C(=O)/C=C/c1cc(OC)c(OC)c(OC)c1	-3.6	0.7	-31	6.5	11	57	-3	i	16	-7
26	CC(C)c1onc(C(=O)NCc2ccccc2)c1[N+](=O)[O-]	·	?	56	·	·	3	-22	·	·	0
27	CC(C)(C)NC(=O)/C(=C\c1ccco1)NC(=O)c1ccco1	4.1	2.4	-4	-3.4	17	-15	-5	i	8	-2
28	Cn1cc(CN2CCC(N3CCNC(=O)CC3)CC2)c(-c2ccccc2F)n1	0.4	2.2	-23	1.4	1	·	-8	i	-2	3
29	N#CC1(NC(=O)CSc2nc3ccc([N+](=O)[O-])cc3s2)CCCCC1	-0.1*	-3.0	2	2.1	-17*	-16	20	i	3.8*	1
30	CCn1c(C)c(Br)c(=O)c(C(=O)OC)c1-c1ccc(Cl)cc1	3.3	4.3	29	-13	10	-2	4	i	7	0
31	Cc1c(C)c2c(C)nn(-c3ccccc3)c2[nH]c1=O	·	-3.0	-2	·	·	4	-2	·	·	0
32	COc1ccccc1OCCNC(=O)CNC(=O)c1ccc2c(c1)OCO2	0.0	-0.1	1	4.0	11	-38	0	i	8	-6
33	COC(=O)Cc1cc(=O)[nH]c(/N=C(\N)Nc2ccc(C)cc2C)n1	·	3.6	5	·	·	-1	-5	·	·	-5
34	O=C(CCNC(=O)C1CCN(S(=O)(=O)c2ccc(F)cc2)CC1)Nc1nccs1	1.4	3.8	5	-1.5	2	0	-11	i	-1	-7
35	O=C1/C(=C/c2ccccc2)SC(=S)N1CC(=O)N1CCCCC1c1cccnc1 (stereo not drawn)	0.5	-1.0	5	3.3	-10	4	29	i	-10	-30
36	Cc1ccc(S(=O)(=O)C2(C(=O)Nc3ccc(F)cc3)CC2)cc1	·	1.6	15	·	·	·	0	·	·	-1
37	COCCNC(=O)CSc1nc2nn(-c3ccccc3)c(=O)c-2c2n1CCCCC2	2.0	2.8	33	0.6	14	-3	20	i	9	1
38	CC(CCc1ccccc1)NC(=S)NC1CCCCC1 (stereo not drawn)	2.4	-3.9	-18	-3.1	22	6	16	·	16	12
39	CCN1CCN(c2ccc(N3CCN(S(=O)(=O)c4cc([N+](=O)[O-])ccc4C)CC3)nn2)CC1	4.7	?	6	3.0	16	·	30	i	12	·
40	COc1ccc(/C=C(\C#N)C(=O)N2COCC2(C)C)cc1	0.6	7.3	8	0.6	5	3	-6	i	1	-3
41	O=C(c1ccc(-c2ccccc2)cc1)C1CCCN(Cc2ccncc2)C1 (stereo not drawn)	-18	3.6	20	-3.3	-53	8	55*	i	-76	12
42	Cn1cc(C=C2C(=O)CC(C)(C)CC2=O)c2ccccc21	-0.7	-3.4	7	11	17	39	-24	i	6	-3
43	CC(C)(C)c1ccc(C(=O)NCCOc2ccccc2)cc1	-4.9	4.2	-18	-2.3	-7	-2	3	i	-2	-4
44	COc1ccc(/C=c2/sc3n(c2=O)NC2(c4ccccc4)N(C)C(=O)N(C)C2(c2ccccc2)N=3)cc1 (stereo not drawn)	·	0.6	0	·	·	-25	12	·	·	2
45	Cc1ccc(-n2ccc(=O)c(C(=O)Nc3ccc(S(=O)(=O)Nc4onc(C)c4C)cc3)n2)cc1	-1.0	5.1	6	-7.3	8	8	-14	i	29	-6
46	COc1cc(OC)cc(C(=O)NCC(=O)NC(C)c2ccccc2)c1 (stereo not drawn)	9.3	3.4	-11	-3.3	13	12	-4	i	17	-4
47	O=C(CSc1nnc(Cc2ccccc2)o1)NCc1ccco1	1.0	2.6	4	·	23	2	-23	·	21	2
48	Cc1cc2ncn(C(=O)N3CCCC3)c2cc1C	·	-1.2	-2	·	·	-1	-6	·	·	0
49	COc1cccc(Nc2ccc([N+](=O)[O-])c3nonc23)c1	-3.7	-9.3	?	1.7	10	5	-33	·	4	13
50	CC(C)(C)Cc1nnc(NS(=O)(=O)c2ccccc2)s1	-3.7	-4.2	18	-2.0	-9	-9	2	i	-14	-3
51	CN(Cc1cn(-c2ccccc2)nc1-c1ccc(F)cc1)C(=O)CCC(=O)O	·	1.1	-2	1.0	·	-3	42	i	·	-3
52	CC(=O)Nc1ccc(-c2csc(NCc3ccccc3)n2)cc1	18	-1.9	6	8.4	2	13	21	i	10	-3
53	CCOc1ccccc1NC(=O)c1c(Br)cnn1C	·	0.2	55	·	·	·	8	·	·	-2
54	O=C(COC(=O)CCc1nc2ccccc2c(=O)[nH]1)Nc1ccccc1OC(F)F	0.9	·	·	-9.0	7	·	·	i	6	1
55	Cc1cc(C)n(C(=O)CN2C(=O)COc3ccccc32)n1	·	-2.0	-3	·	·	-12	-8	·	·	-9
56	O=C(Nc1ccc(-c2cn3ccsc3n2)cc1)C1CCCC1	·	-1.0	5	·	·	4	3	·	·	·
57	Cc1ccc2c(C(=O)CN3CCCCC3)c(C)[nH]c2c1	1.8	3.1	-4	1.6	7	12	-5	i	13	-4
58	O=C(O)CC1c2ccccc2S(=O)(=O)N1Cc1ccccc1 (stereo not drawn)	-4.3	3.4	6	-18	0	2	1	i	8	-1
59	CC1CCN(S(=O)(=O)c2cccc(C(=O)N(Cc3ccccc3)c3ccccn3)c2)CC1	-3.3	?	-3	-0.9	-23	-26	19	i	-28	2
60	CSCCC(NC(=O)COc1ccccc1)C(=O)N1CCC(C(N)=O)CC1 (stereo not drawn)	3.2	·	·	23	6	-6	·	i	10	-1
61	O=C(CCS(=O)(=O)c1cccc2nonc12)NCCc1ccccc1Cl	·	6.8	3	·	·	31	-11	·	·	0
62	Cc1nn2c(N3CCN(C4CCCC4)CC3)cc(C(C)(C)C)nc2c1-c1ccccc1	·	7.6	-1	·	·	-1	-10	·	·	-8
